NPYLR7 ag – mosquito NPYLR7 agonism. AID 1259423. 0.15% of 270,000 active. HEK293T NPYLR7/Galpha15, GCaMP6s calcium fluorescence. activation, % at 10 µM; in the data active = activation above about 40%;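 note: 0% = vehicle and 100% = reference agonist at the receptor; some compounds past the cut are filed as inactive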
NPYLR7 ag max-min – second read-out of NPYLR7 ag, no call of its own (marks repeat the call); activation, %; measured here: Max-Min RFU normalised activation; some inactives read as strong as hits;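 span of the calcium signal over five minutes; 0% = vehicle and 100% = native peptide agonist; compound fluorescence can raise it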
Active calls of the source: *; & = joins results of further samples. Not all compounds are listed (hit frequency here may not be typical).

SMILES	NPYLR7 ag	NPYLR7 ag max-min
O=c1ccc2cc(S(=O)(=O)Nc3cc(Cl)ccc3Cl)ccc2o1	0	5
O=C(Cn1c2c(c(=O)n(C3CCCCC3)c1=O)CCC2)Nc1ccc2ncccc2c1	-1	4
CN1C[C@H]2C[C@@H]1CN2c1cc2c(cc1F)c(=O)c(C(=O)O)cn2C1CC1	-18	-24
Cc1nc(C)c(C(C)NC(=O)c2ccc(CN3CCN(C)CC3)cc2)s1 (stereo not given)	-5	-7
O=C(CCSc1ccc(Cl)cc1)NCCc1cccs1	-7	-7
CCCc1c(C)nn(-c2ccc(C(=O)Nc3cccc(-c4ccnc(C)n4)c3)cc2)c1C	-18	-30
Cc1ccc(C2CC(c3cccs3)=NN2S(C)(=O)=O)o1 (stereo not given)	7&0	5&0
Cc1ccc2oc(C(=O)N3CCC(O)(c4ccccc4)CC3)c(C)c2c1	4	1
CCCC1CC2(O)CC(C#N)(C(=O)N2)C1(C#N)C#N (stereo not given)	1	0
COCCCN(Cc1c(C)nn(-c2ccccc2)c1N1CCN(C)CC1)C(=O)Nc1cccc(C(F)(F)F)c1	17	23
C=CCN(C)C(=O)c1cc(-c2ccc3c(c2)OCO3)nc2ccccc12	0	11
COc1ccc(C(=O)NC(C)c2cccnc2)cc1F (stereo not given)	8	8
CC(C)S(=O)(=O)c1ncc(CN2CCc3ccccc3C2)n1Cc1ccccc1F	12	4
Cc1nc(C(C)C)ncc1C(=O)NCc1c(C)noc1C	19	12
CCC(C)N(Cc1cccnc1)C(=O)c1cncc(C)c1 (stereo not given)	-1	1
CN(C)c1ccc(/C=N\Nc2nc(F)cc(F)n2)cc1	6	0
Cc1c(C(C)NC(=O)/C=C/c2ccccn2)cnn1-c1cccc2ccccc12 (stereo not given)	8	2
C=CCSc1nc2c(c(=O)[nH]c(=O)n2C)n1Cc1cccc(C)c1	-15	-15
O=C(Nc1ccc2c(c1)N(C(=O)c1ccccc1)CCC2)c1ccc(Br)o1	-2	4
Cc1cc(C)n(CCCNc2nccc(N3CCC(O)CC3)n2)n1	22	10
COCC(=O)Nc1ccc(-c2cn3ccsc3n2)cc1	-2	-3
O=C(O)c1coc(CN(CCc2c[nH]c3ccccc23)Cc2ccc(Cl)c(Cl)c2)n1	10	8
CCCCN(CCC(=O)N1CCN(c2ccccc2C)CC1)c1nc(Cc2ccc(C)cc2)ns1	-6	0
CCOC(=O)c1c(NC(=O)c2cnn3c(C(F)(F)F)cc(-c4ccccc4)nc23)sc2c1CCCC2	4	15
Cc1sc2c(c1C)CN(C(C)(C)C)CN2C(=O)c1ccco1	13	21

Remaining list, next part
SMILES	NPYLR7 ag	NPYLR7 ag max-min
COc1ccc(OCC2CN(C(=O)C3CCC(N(Cc4ccc(F)cc4)C(=O)OC(C)(C)C)CC3)CCO2)cc1 (stereo not given)	5	2
COc1cc(OC)cc(N2CCN(C(=O)c3ccc(C(F)(F)F)cc3)C(C)C2=O)c1 (stereo not given)	21	14
Clc1cnc(NCCCNc2ncc(Cl)cn2)nc1	4	1
Cc1cccn2c(=O)cc(OCC(=O)Nc3cccc(Cl)c3)nc12	-6	-3
COc1ccc(-c2cc(NC3CC3)nc(N)n2)c(C)c1	0	0
Cc1nc(C(=O)NC(C)c2ccccc2Br)nn1-c1ccc(F)cc1 (stereo not given)	2	-1
O=C(Nc1nnc(SCc2cc(F)cc(F)c2)s1)C1CC1	-3	-5
Cc1c(NC(=O)N2CCOCC2)ccc2c1c1ccccc1n2C(C)C	-14	-18
O=C(NC(CCn1cncn1)c1ccccc1)c1ccc2nc(C3CC3)oc2c1 (stereo not given)	5	2
CCOC(=O)C1=C(C)NC2=C(C(=O)CCC2)C1c1cccc(O)c1 (stereo not given)	1	-4
Cc1cnc(C(=O)NC(C)c2ccccc2OC(C)C)cn1 (stereo not given)	1	-1
CCOC(=O)C1CCN(C(=O)Cc2csc(NC(=O)CN(CCOC)C(=O)c3ccccc3)n2)CC1	-6	-3
Cc1ccccc1C(=O)N1CCN(C(C)c2ccccc2)CC1 (stereo not given)	-4	2
COc1cccc(CCC(=O)N2CCc3c(sc4[nH]c(=O)n(C5CCCCC5)c(=O)c34)C2)c1	10	1
CC(Oc1ccc2ccccc2c1)C(=O)NN1S(=O)(=O)c2ccccc2S1(=O)=O (stereo not given)	-1	-3
CCN(CC)C1CCN(C(=O)C(NC(=O)Nc2ccccc2)C(C)C)C1 (stereo not given)	2	-2
O=C(CN1C(=O)c2ccccc2C1=O)N1CCN(Cc2ccccc2)CC1	1	-2
O=C(O)c1cc2ccccc2cc1NS(=O)(=O)N1CCCCC1	1	-6
COc1cccc(NC(=O)CC2CSc3nc4c(cnn4-c4ccccc4)c(=O)n32)c1 (stereo not given)	2	0
O=S(=O)(c1cccnc1)N1CCC(OCCCc2ccccc2)C1 (stereo not given)	-1	7
CCOC(=O)c1nn(-c2ccccc2C)c(=O)cc1N1CCN(c2ccccc2F)CC1	4	2
CC(=O)N[C@@H]1C[C@H](CC(C)C)O[C@H](c2c(C)n(C)n(-c3ccccc3)c2=O)C1	-7	-6
COC(=O)c1cccc(C(=O)N2CCN3C(=O)[C@H]([C@H](C)OCc4ccccc4)NC(=O)[C@H]3C2)c1	20	16
O=C(Oc1ccc(NS(=O)(=O)c2ccccc2)cc1Br)c1ccccc1	-8	-10
Cc1nsc(NC(=O)N2CCC(C(O)c3cccs3)CC2)n1 (stereo not given)	11	4

Following part:
SMILES	NPYLR7 ag	NPYLR7 ag max-min
Cc1cc(N(C)CCOc2ccccc2F)nc(C(C)C)n1	-1	-1
CC(=O)Nc1nnc(SCC(=O)Nc2nnc(C)s2)s1	2	8
CC1C(=O)N(c2ccccc2)CCN1Cc1ccccc1F (stereo not given)	-2	5
Cc1cc(Cl)cc(Cl)c1CNc1c([N+](=O)[O-])c(=O)oc2ccccc12	2	4
CC(C)(C)c1csc(NC(=O)CCN2C(=O)c3ccccc3C2=O)n1	-6	-3
O=C(OC1CCCC1)C1CCCN(C(=O)Nc2ccccc2F)C1 (stereo not given)	1	3
CNC(=O)c1cccc(NC(=O)Cn2c(=O)c(C(F)(F)F)nc3ccccc32)c1	2	1
CCc1ccccc1-n1c(=O)c2ccccc2n(CC(=O)NC(C)c2ccccc2)c1=O (stereo not given)	29	29
Cc1cccc2nc(CNCc3c(C(=O)N4CCCCCCC4)nc4sccn34)cn12	3	0
Cc1c(C(=O)N(C)Cc2noc(CC(C)C)n2)cnn1-c1ccccn1	5	-4
O=C(NCC1(c2ccccc2)CCC1)Nc1ccccn1	6	3
Cc1c(N2C(=O)CSC2c2ccc(F)cc2)c(=O)n(-c2ccccc2)n1C (stereo not given)	25	13
c1cnc2nc(SCc3ccc(CSc4nc5ncccc5[nH]4)cc3)[nH]c2c1	2	1
COCc1nn2c(nnc3c(=O)n(C4CC4)ccc32)c1-c1ccccc1	2	4
Cc1cccc(OCCCC(=O)Nc2cccc(CS(C)=O)c2)c1 (stereo not given)	7	3
O=C1Nc2ccc(Cl)cc2C1(O)Cc1n[nH]c(=O)c2ccccc12 (stereo not given)	-3	-5
O=C(O)c1cccn2c(=O)c3c4c(sc3nc12)CCCC4	14	5
O=C(NC1CCN(c2ccccc2C(=O)NCc2ccc3c(c2)OCO3)CC1)c1ccc(F)cc1F	5	1
Cc1[nH]c2ccccc2c1C(=O)CSc1nnc(-c2ccco2)o1	12	4
COc1ccc(C(=O)Nc2ccc(-c3c(-c4cccc(C)c4)nn(-c4ccccc4)c3OC(C)=O)cc2)cc1	-1	6
O=S(=O)(c1cc(F)ccc1F)N1CCNCC1	-1	-1
O=C1C(C(c2ccco2)N2CCOCC2)Sc2ncnn21 (stereo not given)	0	-1
Cc1cc(C)n(C(C)CC(=O)Nc2cc(C(F)(F)F)c[nH]c2=O)n1 (stereo not given)	0	7
Cc1cc(NS(=O)(=O)c2cc(Cl)ccc2Cl)no1	11&0	2&-2
CC(=O)c1c(C)oc2ccc(N(C(=O)C3CCCCC3)S(=O)(=O)c3ccc(F)cc3)cc12	-8	-15

Carrying on:
SMILES	NPYLR7 ag	NPYLR7 ag max-min
COc1cccc2c1OCC(C(=O)N1CC(c3ccccn3)C1)C2 (stereo not given)	7	5
OCCOc1ccccc1-c1nccn1C1CCC1	17	15
CCCCCCCCCCCCCC(=O)N(CCC(C)C)C(C)c1nc2ccccc2c(=O)n1-c1ccc(F)cc1 (stereo not given)	0	-7
Cc1cc(C)cc(NS(=O)(=O)N2CCC(C)CC2)c1	2	7
Cc1ccc2oc(-c3cc(NC(=O)c4ccccc4C)ccc3O)nc2c1	-4	-1
O=C(NCc1cccnc1)c1cnn(-c2ccc(Cl)cc2)c1-c1ccccc1	4	11
O=C(Nc1cccc(F)c1)N1Cc2[nH]cnc2C[C@H]1c1nc(-c2ccc(C(F)(F)F)cc2)no1	-16	-20
Cc1cc2ncc(S(C)(=O)=O)c(NC(=O)c3cccc(F)c3)n2n1	1	38
COc1cccc(NC(=O)CN(C)Cc2cc([N+](=O)[O-])cc3c2OCOC3)c1	2	1
CC(C)c1ccc(NC(=O)CSc2nc(=O)n(CCCN(C)C)c3c2CCC3)cc1	-3	-3
Cc1ccc(C2(O)CCN(C(=O)c3cc(-c4ccncc4)n[nH]3)CC2)nc1	-4	-3
O=C(Nc1ccc(Cl)cn1)C1CC(=O)N(c2ccc(F)cc2F)C1 (stereo not given)	-2	-2
CCCN(CCC(=O)Nc1ccc(F)cc1)c1nc(-c2ccccc2)nc2cc(Cl)ccc12	13	11
COCCN(CC(=O)N1CCc2sccc2C1c1ccc(Cl)cc1Cl)C(=O)/C=C/c1ccc([N+](=O)[O-])cc1 (stereo not given)	-10	-12
N#Cc1ccc(COc2ccc(Br)cc2Br)cc1	-8	-13
O=C(CCNc1ccc(-c2ccccc2)cc1)N1CCn2cncc2C1	10	5
CCOC(=O)c1nn(-c2ccc(F)cc2)c(=O)cc1OCc1ccccc1Cl	11	4
COc1ccc(-c2ccnc3n[nH]c(C4CCNCC4)c23)c(C)c1	2	1
O=C(c1cn2ccsc2n1)N1CCC(N2CCCC(C(=O)N3CCCC3)C2)CC1 (stereo not given)	2	-16
CC(=O)Nc1ccccc1OCC(=O)Nc1ccccc1SC(F)F	2	-1
Cc1ccc(Cl)cc1-c1ccc(/C=N\n2cnnc2)o1	-7	-10
Cc1ccccc1C(=O)N[C@@H]1CCCCC1NC(=O)C1CCCN(C(=O)c2cccc(F)c2)C1 (stereo not given in full)	4	11
Cn1nc(C(=O)N(Cc2nc3ccccc3c(=O)[nH]2)CC2CCCO2)c2ccccc2c1=O (stereo not given)	3	11
CCCc1[nH]n(-c2ccc(F)cc2)c(=O)c1C1=C([n+]2ccccc2)C(=O)N(c2ccccc2F)C1=O	10	14
Nc1cc(S(=O)(=O)C(F)(F)F)cc(S(=O)(=O)C(F)(F)F)c1	-6	-11

Other records:
SMILES	NPYLR7 ag	NPYLR7 ag max-min
CCNc1nc(-c2ccc(OC)cc2)nc2cc(Cl)ccc12	-2	1
Cc1cn2c3c(=O)n(C)c(=O)n(C)c3nc2n1-c1ccc(Oc2ccccc2)cc1	1	4
COCCNC(=O)c1ccc(OC)cc1OC1CCN(Cc2cccc3cccnc23)CC1	3	1
CCOC(=O)C1CCCN(C(=O)c2nn(-c3ccc(OC)c(OC)c3)c(=O)n(Cc3cccc(C(F)(F)F)c3)c2=O)C1 (stereo not given)	14	10
COc1ccc2[nH]c(C)c(CC(=O)NCC3(N)CCCCCC3)c2c1	10	4
Cc1cccnc1NC(=O)Cn1cnc(-c2ccccc2)cc1=O	11	4
CCOC(=O)CC1=NN(c2ccccc2)C(=O)/C1=C\c1cc(OC)c(OC)cc1OC	16	14
COCCN(Cc1csc(COc2c(OC)cccc2OC)n1)C(=O)C1CCCC1	12	11
CN(C)CCCNc1nc2cc(-c3cnn(Cc4ccccc4)c3)sc2c(=O)n1C	7	2
CS(=O)(=O)c1ccc(NS(=O)(=O)c2cccc(F)c2)cc1	8	2
Cc1cc(O)c(CN2CCN(S(=O)(=O)c3ccc(F)c(F)c3F)CC2)cc1C	6	5
O=C(CN1CN(c2ccccc2)C2(CCN(S(=O)(=O)c3ccc(F)cc3)CC2)C1=O)NCC1CCCCC1	-3	0
CCC1CN(Cc2ccc3ccn(C)c3c2)CCN1C(C)C (stereo not given)	-3	-5
COCCn1cc(NC(=O)Nc2ccccc2Cl)c2ccccc21	12	2
CN(Cc1ccccc1)c1ncccc1CNC(=O)C1CCNC1 (stereo not given)	11	4
CCOC(=O)c1nc2cc(Cl)c(Cl)cc2nc1N1CCCN(C(=O)c2ccc3c(c2)OCO3)CC1	6	4
Cn1c(=O)[nH]c(=O)c2c1nc(Sc1nc3ccccc3[nH]1)n2Cc1ccccc1Cl	26	16

Bioassay records deposited in PubChem BioAssay by Fisher Drug Discovery Resource Center.
